Source: PubChem BioAssay
2A Renilla – FMDV 2A StopGo reporter, Renilla signal; HEK cells with a luciferase reporter of 2A StopGo recoding; Potency, µM (doses to about 57.5 µM), inactives show at the highest dose signal change, negative = less light; 0.32% of 120,000 active; active means well fitted falling curve with a large enough effect; inconclusive means small, poorly fitted or top-dose-only effect; inactive means no such curve, though single readings can be large or run the other way; note: nearly all actives have a fitted effect of over 55% in size; overnight with compound
2A firefly – lowers the firefly signal of an FMDV 2A StopGo reporter; Potency, µM (top dose mostly 57.5 µM), without a hit: at the highest dose signal change, negative = less light; HEK cells with a luciferase reporter of 2A StopGo recoding; 0.23% of 120,000 active; active = well fitted falling curve with a large enough effect; inconclusive = small, poorly fitted or top-dose-only effect; inactive = no such curve, though single readings can be large or run the other way; note: nearly all actives have a fitted effect of over 60% in size; overnight with compound
* marks the source's active call; other numbers are inactive results; u = inconclusive; [ ] = remark or other dose. % is set by controls: 0 for no effect and ±100 for the full control effect; potency is the fitted concentration of half-maximal effect.

molecule	2A Renilla	2A firefly
CCCNC(=O)NC(=O)CSc1nc2ccccc2c(=O)n1C(C)CC (stereo not given)	11.1%	16.3%
CSc1ccccc1C(=O)Nc1c(C)cc(C)cc1C	2.3%	-7.3%
COc1cc(Cl)c(C)cc1NC(=O)c1cc2c(=O)oc3ccccc3c2s1	-8.7%	-22.6%
Cc1ccc(C(=O)C(C)OC(=O)c2cc3ccccc3[nH]2)cc1 (stereo not given)	-4.4%	120.9%[activator]
CCc1ccc(-c2cc(C)no2)cc1S(=O)(=O)Nc1cc(F)ccc1F	57.6%[activator]	3.7%
Cc1ccccc1OCC(=O)N1CCC(NC(=O)c2ccccc2)CC1	11.3%	13.0%
CC1=C(C(=O)Nc2ccccc2C)C(c2ccco2)C(C#N)=C(SCC(=O)c2ccc(F)cc2)N1 (stereo not given)	-7.2%	-1.8%
CCCCn1cc(S(=O)(=O)c2cc(C)ccc2C)c(=O)c2cc(F)c(N3CCC(C)CC3)cc21	-5.4%	12.3%
Cc1c(NC(=O)c2cc(-c3cccc(O)c3)on2)c(=O)n(-c2ccccc2)n1C	-17.0%	0.0%
CCc1ccccc1NC(=O)c1ccc2c(c1)c(C)c(C)n2Cc1ccccc1	6.1%	40.2%[activator]
CC(CSc1nc2ccccc2o1)Cn1c(N2CCOCC2)nc2c1c(=O)[nH]c(=O)n2C (stereo not given)	-9.6%	3.1%
NC(=O)c1nc(Nc2ccccc2)sc1NC(=O)CC1CCCC1	-7.7%	1.6%
COc1ccccc1Nc1sc(C(=O)c2ccc(C)cc2C)c(N)c1S(=O)(=O)c1ccccc1	37.1%[activator]	4.0%
CSc1ccc2c(c1)C(N1CCN(C)CC1)Cc1ccccc1S2 (stereo not given)	-9.5%	-12.2%[11.5 µM]
N#Cc1ccc(OCc2cc(Cl)c3c(c2)OCCO3)cc1	26.8%	57.9%[activator]
CCOc1ccc(C(=O)N2CCC(NS(=O)(=O)c3cccs3)CC2)cc1	10.0%	-8.0%
O=C(CCc1c[nH]c2ccccc12)Nc1nnc(C2CC2)s1	u	-27.2%
CCNC(=O)COC(=O)c1c(C)c(CC)nc2ccccc12	0.6%	3.3%
N#Cc1c(-n2ncnc2-c2cccc(Cl)c2)sc2c1CCCCC2	-11.1%	17.4%
Cc1cccc(Oc2c(C(F)(F)F)oc3cc(OCC(=O)OCCC(C)C)ccc3c2=O)c1	-1.1%	3.4%
Cc1cc(C(c2ccccc2F)N2CCCCC2)c(NC(=O)c2ccco2)s1 (stereo not given)	24.3%	0.0%
CCC(=O)N1CCc2cc(CNC(=O)c3ccc(F)cc3)ccc21	-10.6%	86.2%[activator]
CC(C)(C)C(=O)NCc1ccc(-c2nc3ccccc3s2)cc1	u	-31.8%
CN(C(=O)Cc1c[nH]c2ccccc12)c1nc2ccccc2s1	-16.3%	-4.6%
O=C(NCCO)c1nc(-c2ccc3[nH]ccc3c2)no1	4.5%	128.0%[activator]
CN(C)Cc1ccc(CNC(=O)CNC(=O)Nc2ccccc2)cc1	12.6%	0.0%
CCCCN(CC)C(=O)CSc1nc2c(sc3ccccc32)c(=O)n1CCc1ccccc1	-11.1%	15.3%
CC(C)NC(=O)C1CC(=O)N(c2ccc(Br)cc2)C1 (stereo not given)	25.0%	20.4%
COc1cccc(NC(=O)C2(C#N)CCCC2)c1	10.2%	28.2%
COc1ccc(SC(C)C(=O)NC(C)(C)C)cc1 (stereo not given)	-14.2%	2.0%
CCCn1c(C)cc(C(=O)COC(=O)c2c(C)nn(Cc3ccc(C)cc3)c2Cl)c1C	u	u
COc1cc(O)c2c(c1)/C=C/CCC/C(=N\O)CCC[C@H](C)OC2=O	u	u
CCc1ccc(Nc2nc3ccccc3nc2NS(=O)(=O)c2ccc(F)cc2)cc1	31.6%[activator]	4.1%
Cc1ccnc2c1NC(=O)c1cccnc1N2C1CC1	-17.2%	-26.2%
O=C(NC1CC1)C(Sc1cc(Cl)ccc1Cl)c1ccccc1 (stereo not given)	-1.7%[1.06 µM]	-3.4%
Cc1ccc(C2CCCN2C(=O)c2cc(C3CC3)on2)cc1 (stereo not given)	15.2%	53.9%[activator]
CCN(CC)CCOC(=O)c1c(C)n(C)c2ccc(OC)cc12	u	-28.5%
COc1cc(C(=O)Nc2ncccc2C)cc(Cl)c1OC(C)C	12.1%	-4.2%
C=CCn1c(C)cc(C(=O)COc2ccc3ccc(=O)oc3c2)c1C	11.2%	7.4%
COc1ccc(C(=O)NCCc2sc(-c3ccc(Cl)cc3)nc2C)c(OC)c1	-11.1%	87.5%[activator]
N#Cc1nc(-c2ccccc2Cl)oc1NC1CC1	37.5%[activator]	246.2%[activator]
CCc1ccccc1NC(=O)c1cc(S(=O)(=O)N2CCCc3ccccc32)ccc1F	21.9%	-11.7%
COc1ccc(CN2CCCN(C(=O)c3cn(C)nc3-c3ccc4c(c3)OCCCO4)CC2)cc1	0.1%	-11.0%
Cn1c(=O)n(C)c2cc(NS(=O)(=O)c3ccc(C(C)(C)C)cc3)c(NCc3ccccc3)cc21	388.4%[activator]	278.0%[activator]
COc1ccc(NC(=O)c2ccc3nc(C(C)C)oc3c2)cc1OC	-0.7%	91.0%[activator]
CCOc1ccc(-c2nnc(SCC(=O)NC(C)CC)nc2-c2ccc(OCC)c(OC)c2)cc1OC (stereo not given)	0.0%	22.3%
O=C(CN1CCCC1c1cccs1)C12CC3CC(CC(C3)C1)C2 (stereo not given)	27.8%	21.3%
CCOC(=O)c1oc2c(c1C)/C(=N\OC(C)=O)CCC2	-1.3%	122.8%[activator]
Cc1nn(CC(=O)NC(C)(C)C)c(C)c1S(=O)(=O)N1CCCC(C(=O)N2CCCC2)C1 (stereo not given)	-4.4%	7.3%
O=C1C(Nc2ccccc2)=CC(c2ccccc2)N1c1ccccc1 (stereo not given)	13.0%	120.6%[activator]

Sorted by SMILES length (ascending): 22 of the compounds above.
molecule	2A Renilla	2A firefly
N#Cc1nc(-c2ccccc2Cl)oc1NC1CC1	37.5%[activator]	246.2%[activator]
COc1cccc(NC(=O)C2(C#N)CCCC2)c1	10.2%	28.2%
CSc1ccccc1C(=O)Nc1c(C)cc(C)cc1C	2.3%	-7.3%
N#Cc1ccc(OCc2cc(Cl)c3c(c2)OCCO3)cc1	26.8%	57.9%[activator]
CCNC(=O)COC(=O)c1c(C)c(CC)nc2ccccc12	0.6%	3.3%
O=C(NC1CC1)C(Sc1cc(Cl)ccc1Cl)c1ccccc1 (stereo not given)	-1.7%[1.06 µM]	-3.4%
NC(=O)c1nc(Nc2ccccc2)sc1NC(=O)CC1CCCC1	-7.7%	1.6%
CC(C)(C)C(=O)NCc1ccc(-c2nc3ccccc3s2)cc1	u	-31.8%
N#Cc1c(-n2ncnc2-c2cccc(Cl)c2)sc2c1CCCCC2	-11.1%	17.4%
CCCNC(=O)NC(=O)CSc1nc2ccccc2c(=O)n1C(C)CC (stereo not given)	11.1%	16.3%
C=CCn1c(C)cc(C(=O)COc2ccc3ccc(=O)oc3c2)c1C	11.2%	7.4%
CCc1ccc(-c2cc(C)no2)cc1S(=O)(=O)Nc1cc(F)ccc1F	57.6%[activator]	3.7%
COc1cc(Cl)c(C)cc1NC(=O)c1cc2c(=O)oc3ccccc3c2s1	-8.7%	-22.6%
COc1cc(O)c2c(c1)/C=C/CCC/C(=N\O)CCC[C@H](C)OC2=O	u	u
Cc1c(NC(=O)c2cc(-c3cccc(O)c3)on2)c(=O)n(-c2ccccc2)n1C	-17.0%	0.0%
CCCn1c(C)cc(C(=O)COC(=O)c2c(C)nn(Cc3ccc(C)cc3)c2Cl)c1C	u	u
Cc1cccc(Oc2c(C(F)(F)F)oc3cc(OCC(=O)OCCC(C)C)ccc3c2=O)c1	-1.1%	3.4%
COc1ccc(CN2CCCN(C(=O)c3cn(C)nc3-c3ccc4c(c3)OCCCO4)CC2)cc1	0.1%	-11.0%
CCOc1ccc(-c2nnc(SCC(=O)NC(C)CC)nc2-c2ccc(OCC)c(OC)c2)cc1OC (stereo not given)	0.0%	22.3%
CCCCn1cc(S(=O)(=O)c2cc(C)ccc2C)c(=O)c2cc(F)c(N3CCC(C)CC3)cc21	-5.4%	12.3%
CC1=C(C(=O)Nc2ccccc2C)C(c2ccco2)C(C#N)=C(SCC(=O)c2ccc(F)cc2)N1 (stereo not given)	-7.2%	-1.8%
Cn1c(=O)n(C)c2cc(NS(=O)(=O)c3ccc(C(C)(C)C)cc3)c(NCc3ccccc3)cc21	388.4%[activator]	278.0%[activator]

Remaining list, next part.
molecule	2A Renilla	2A firefly
O=C(Cc1cccc2ccccc12)Oc1ccc(Cl)c2ccccc12	20.5%	0.0%
Cc1c(C(=O)O)c2cc(O)ccc2n1-c1ccccc1	-12.8%	-0.6%
Cc1ccccc1CSc1cn(CC(=O)N2CCCCC2)c2ccccc12	109.3%[activator]	59.2%[activator]
COc1cccc(C2=CC(c3ccc(OC)c(OC)c3OC)n3ncnc3N2)c1 (stereo not given)	-4.7%	-6.9%
COc1ccc(S(=O)(=O)NCC(c2cccs2)S(=O)(=O)c2ccccc2)cc1OC (stereo not given)	353.5%[activator]	2.7%
CN(C1CCCCC1)S(=O)(=O)c1ccc2c(c1)c(=O)c(C(=O)N1CCN(c3ccccc3)CC1)cn2C	-4.8%	-4.5%
CC1CC(NC(=O)NCCCCCCNC(=O)NC2CC(C)CC(C)(C)C2)CC(C)(C)C1 (stereo not given)	0.7%	3.6%
COc1ccc(C(=O)CSc2nc3nc(C)c(Br)cc3[nH]2)cc1	0.8%	239.9%[activator]
CCN(CC)S(=O)(=O)c1ccc(C(=O)Nc2nc3ccc(Cl)cc3s2)cc1	2.8%	-6.6%
O=[N+]([O-])c1ccc2cnn(-c3cccc(C(F)(F)F)c3)c2c1	-15.3%	101.7%[activator]
COc1cccc(OCc2cc(C3C(C#N)=C(N)Oc4n[nH]c(C)c43)ccc2OC)c1 (stereo not given)	1.7%	-0.1%
Cc1oc2cc(OCC(=O)Nc3ccc4c(c3)OCCO4)ccc2c(=O)c1-c1ccccc1	-13.8%	10.6%
N#CC1=C(N)N(c2c(F)cccc2F)C2=C(C(=O)CCC2)C1c1ccc(F)cc1 (stereo not given)	59.8%[activator]	-20.5%
COc1ccc(Cl)cc1NC(=O)N1CCC2(CC1)N=C(c1ccc(C)c(C)c1)C(=O)N2	-11.5%	-10.9%
O=C(NCCSC1CCCC1)c1ccsc1	53.2%[activator]	180.3%[activator]
CCNc1nc(NC(C)CC)nc(Oc2ccc(C(=O)OC)cc2)n1 (stereo not given)	9.8%	-1.9%
Cc1ccc(C23CC4CC(CC(C4)C2)C3)cc1N	11.2%	u
CCN(CC)C(=S)SCc1csc(C)n1	11.5%	38.8%[activator]
CCCN(Cc1cc(=O)[nH]c2ccccc12)C(=O)C(C)C	-10.0%	-0.2%
Cc1cc(OCC(=O)Nc2ccc(CCO)cc2)c2c(C)c(C)c(=O)oc2c1	78.7%[activator]	3.1%
Cc1c(C#N)c(NC(=O)CSc2nnc(C3CC3)n2-c2ccccc2)n(Cc2ccco2)c1C	-2.0%	-7.8%
Cc1ccc(N2C(=O)CSC23C(=O)N(CC(=O)Nc2ccccc2F)c2ccccc23)cc1C (stereo not given)	-22.7%	u
CNC(=O)c1ccc(-c2nc(CN3CCN(C(=O)Nc4ccc(OC)cc4)CC3)c(C)o2)cc1	-11.0%	9.2%
COc1cc2oc(=O)c(CC(=O)NCCc3ccccc3OC)c(C)c2cc1Cl	-0.5%	4.4%
Cc1cccc2cc(CN(Cc3cccnc3)C(=O)C(C)C)c(=O)[nH]c12	-26.7%	-19.5%

A second format for some results above:
Second line of a record: 2A Renilla	2A firefly
> CCCN(Cc1cc(=O)[nH]c2ccccc12)C(=O)C(C)C
    -10.0%	-0.2%
> N#CC1=C(N)N(c2c(F)cccc2F)C2=C(C(=O)CCC2)C1c1ccc(F)cc1 (stereo not given)
    59.8%[activator]	-20.5%

The listing continues:
molecule	2A Renilla	2A firefly
CC(=C\C(=O)O)/C(=C\c1ccc(Br)cc1)C(=O)O	-0.4%	12.6%
Cc1ccc(S(C)(=O)=O)cc1C(=O)N1CCCC(c2nc3ccccc3[nH]2)C1 (stereo not given)	0.0%	93.8%[activator]
O=C(Cn1c(=O)n(Cc2ccccc2)c(=O)c2oc3ccccc3c21)Nc1ccc(Cl)cc1	-6.6%	-10.7%
COC(=O)c1cc2oc3ccccc3c2n1Cc1ccc(Cl)cc1	-3.9%	97.5%[activator]
O=C(CCc1ncc(-c2ccccc2F)o1)Nc1ccc2ccccc2n1	3.5%	59.2%[activator]
CCCCn1c(N)c(N(CCOC)C(=O)c2cccc(OC(F)F)c2)c(=O)[nH]c1=O	-8.0%	-7.6%
CCCOc1ccc(-c2nc(SC)[nH]c(=O)c2C#N)cc1OC	-4.0%	2.5%
Cc1ccc2ccc3cc(C(=O)N4CCN(c5ccccc5)CC4)nc3c2[nH]1	-27.9%	u
O=C(CCn1c(=O)oc2ccccc21)Nc1cccc(S(=O)(=O)N2CCCC2)c1	32.3%[activator]	-0.2%
COc1cc2c(cc1OC)C(c1cccc(Cl)c1)CC(=O)N2 (stereo not given)	35.4%[activator]	0.0%
Cn1ncc(C(=O)NCc2ccccc2)c1-n1cccc1	-9.8%	1.9%
O=C(O)C(c1c[nH]c2ccc(OCc3ccccc3)cc12)N1CCN(Cc2ccncc2)CC1 (stereo not given)	0.0%	11.2%
CC(C)(C)OC(=O)N1CCC(c2c(C(=O)NCc3ccc4c(c3)OCO4)cnn2-c2ccc(F)cc2F)CC1	10.8%	-6.5%

An excerpt (hit frequency here may not be typical).
